Resorufin autofl: resorufin region autofluorescence; Compound fluorescence, resorufin region 547/598 nm, buffer; active compounds read high; max dye-equivalent concentration, M; actives 0.04% (n = 59,000); AID 588; active = above 10 nM dye equivalent; inconclusive = 1 to 10 nM; inactive = 1 nM or less; a few of its hits are not listed in these tables; also: highest value over a series up to 38 µM
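Tris 100 mM pH 8.0; compound added, 15 min RT; CCD imager read, ex 547 nm/em 598 nm; signal normalized to resorufin standard curve (six concentrations per plate) as dye-equivalent concentration.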
A488 autofl: compound autofluorescence in A488 spectral region | compound autofluorescence, A488 spectral region, dye equivalency; active compounds read high | max dye equivalency, M | actives 0.1% (n = 59,000) | AID 591; active = above 10 nM dye equivalent; inconclusive = 1 to 10 nM; inactive = 1 nM or less; about half of its hits are not listed in these tables;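 also: highest value over a series up to 38 µM; compound alone in buffer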
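Spectroscopic profiling in the A488 region: compounds in pH 8.0 Tris (100 mM), 15 min RT, CCD imaging with 480 nm excitation and 540 nm emission; responses normalized against A488 dye standards.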
AID923: qHTS Assay for Allosteric/Competitive Inhibitors of Caspase-1: Spectroscopic Profiling in AFC Spectral Region; compound fluorescence, AFC spectral region (405/520 nm); almost no hit is shown here; actives 1.1% (n = 75,000); Potency, µM (doses to about 57.5 µM), for the others: at the top dose fluorescence increase, most hits filed as activators; active = well fitted activation curve with a large enough effect; inconclusive = small, poorly fitted or top-dose-only effect;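 also: potency is read from the fitted curve at half-maximal effect; 0% is about no effect; scaled to a free AFC standard on each plate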
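Compound autofluorescence profiled at 405 nm ex/520 nm em during kinetic caspase 1 run (50 nM enzyme, 5 uM Ac-WEHD-AFC, HEPES pH 7.5, 10 mM DTT). Titration up to 57 uM; baseline from regression intercept, normalized to AFC standard curve.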
TSHR agonist: TSH receptor (human) agonism; P16473; HEK293-CNG-TSHR cells (CNG channel as cAMP sensor), membrane potential dye, cAMP; Potency, µM (highest dose often 57.1 µM), without a hit: at the top dose activation, actives largely listed as activators; actives 0.48% (n = 73,000); AID 926; active = well fitted activation curve of enough size with the parental cells flat; inconclusive = any curve in the parental cells; inactive = parental cells flat and receptor cells flat or falling; also: potency is read from the fitted curve at half-maximal effect; % of control where 0% means no effect; weak receptor curves with flat parental cells got no call and are not listed
Target sequence (P16473 whole entry, looked up): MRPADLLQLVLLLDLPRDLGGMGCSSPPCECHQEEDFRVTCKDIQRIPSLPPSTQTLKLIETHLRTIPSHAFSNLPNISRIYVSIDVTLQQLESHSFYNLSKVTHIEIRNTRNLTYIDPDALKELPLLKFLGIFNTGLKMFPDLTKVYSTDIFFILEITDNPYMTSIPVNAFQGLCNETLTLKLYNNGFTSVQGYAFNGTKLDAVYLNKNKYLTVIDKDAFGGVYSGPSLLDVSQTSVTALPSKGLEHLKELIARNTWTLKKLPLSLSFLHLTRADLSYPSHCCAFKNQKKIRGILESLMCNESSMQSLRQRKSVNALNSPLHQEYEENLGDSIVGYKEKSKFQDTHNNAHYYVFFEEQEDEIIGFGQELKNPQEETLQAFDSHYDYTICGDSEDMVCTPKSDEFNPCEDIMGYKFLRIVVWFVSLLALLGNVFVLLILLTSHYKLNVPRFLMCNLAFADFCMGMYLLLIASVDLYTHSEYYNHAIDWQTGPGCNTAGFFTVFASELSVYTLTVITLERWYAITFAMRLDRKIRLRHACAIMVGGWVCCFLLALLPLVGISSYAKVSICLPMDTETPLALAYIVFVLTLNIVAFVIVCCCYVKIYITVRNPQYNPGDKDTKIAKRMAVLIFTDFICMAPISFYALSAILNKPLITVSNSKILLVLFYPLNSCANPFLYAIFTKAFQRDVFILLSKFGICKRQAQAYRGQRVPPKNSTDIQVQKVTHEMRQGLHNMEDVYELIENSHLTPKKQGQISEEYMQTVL
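cAMP rise detected as CNG-channel membrane depolarization by fluorescent dye (emission 590 nm), 30 min after compound, following 60 min dye loading containing 100 uM RO 20-1724 at room temperature. Cells: TSHR/CNG HEK 293, with parental CNG HEK 293 as control.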
A647 autofl: A647 region autofluorescence; Compound fluorescence, A647 channel (570/671 nm), Tris buffer; max dye-equivalent concentration, M; 59,000 tested, under 10 active; AID 592; active means above 1 µM dye equivalent; inconclusive means 0.1 to 1 µM; inactive means 0.1 µM or less;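 also: values scaled relative to a standard on each plate; highest value over a series up to 38 µM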
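Tris 100 mM pH 8.0; cpd + A647 stds pin-transferred; 15 min RT; CCD imager, ex 570/em 671. Output = A647-equivalent conc. per cpd conc.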
* marks the source's active call; other numbers are inactive results; i = inactive; ? = inconclusive; nt = not tested or not shown; [ ] = another dose, or the depositor's remark.

SMILES | Resorufin autofl | A488 autofl | AID923 | TSHR agonist | A647 autofl
C=CCc1ccc(OCC(O)COCC)c(OC)c1 (stereo not drawn) | nt | nt | 1.8% | ? | nt
Cn1c(NCCCO)nc2c(c1=O)C1(CCCCC1)Cc1ccccc1-2 | i | i | 0.9% | -8.4% | 2.1e-09
O=C(CN(C(=O)CNC(=O)c1ccco1)c1ccc(Cl)c(Cl)c1)NC1CCCCC1 | i | i | -0.3% | ? | 4.59e-08
CCN1CCN(CC(=O)NC2CCCC2)C(=O)C1=O | nt | nt | 1.7% | 1.6% | nt
CCOC(=O)c1cccc(NC(=O)c2cc3sccc3n2C)c1 | i | i | -0.1% | ? | 2.89e-08
COc1ccc(-c2c3c(=O)n(C)c(=O)n(C)c3cn2NC(C)=O)cc1 | i | i | 2.3% | 0.8% | 4.9e-09
CCN1CCN(C(CNS(=O)(=O)c2ccc(OC)cc2)c2cccnc2)CC1 (stereo not drawn) | nt | nt | 0.9% | -1.3% | nt
COc1ccc(OCC(=O)N(C)Cc2ccccc2)cc1 | nt | nt | 0.6% | 0.2% | nt
COc1ccc(-n2nnc3c(=O)n(Cc4ccccc4C)cnc32)cc1 | i | i | -3.0% | nt | 4.7e-09
CCCc1[nH]nc2c1C(c1ccc(OC(=O)c3ccco3)cc1)C(C#N)=C(N)O2 (stereo not drawn) | nt | nt | 2.7% | -1.0% | nt
COc1cc2c(cc1OC)C(C(=O)N1CCCC1)C(c1ccccc1F)N(C)C2=O (stereo not drawn) | i | i | 0.8% | 7.1%[11.4 µM] | 2.2e-08
O=C(C1CCC(Cn2c(=S)[nH]c3ccccc3c2=O)CC1)N1CCN(c2ccccc2)CC1 (stereo not drawn) | i | i | 0.3% | ? | 1.1e-09
COc1ccccc1N1CCN(S(=O)(=O)c2ccc3c4c(cccc24)C(=O)N3C)CC1 | i | i | 4.1% | -1.0% | 1.33e-08
COC(=O)c1ccc(=O)n(-c2ccc(OC)cc2)c1 | i | i | 1.5% | 23.2% | 8e-09
CCN(CC)CCNC(=O)c1cc2c(=O)n(C)c3ccccc3c2n1C | nt | nt | 2.8% | 13.4% | nt
COc1ccc(C2C(C(=O)NCc3ccccc3)=C(C)Nc3ncnn32)cc1OC (stereo not drawn) | i | i | 1.0% | -2.0% | 3.85e-08
c1cnc2ccc(C(c3nnnn3C3CCCC3)N3CCN(c4nc5ccccc5s4)CC3)cc2c1 (stereo not drawn) | i | i | -0.3% | 20.8% | 1e-09
O=C(Nc1cccc(Cl)c1)c1ccc2c(=O)n3c(nc2c1)CCCCC3 | i | i | 3.0% | 24.4% | 1e-09
NC(=O)c1c(C(F)(F)F)cc(-c2ccccc2)nc1NCCO | i | i | 0.2% | -38.3%[inhibitor] | 7.8e-09
CS(=O)(=O)N1CCC2(CCN(C(=O)Nc3cccc(C#N)c3)CC2)CC1 | i | i | -2.6% | 0.9% | 1.7e-09
COCCN1Cc2cccc(C(=O)NCc3cccnc3)c2C1=O | nt | nt | 0.3% | 0.2% | nt
OC12CCCCC1C(c1ccc3c(c1)OCO3)N(Cc1cccc(F)c1)CC2 (stereo not drawn) | i | i | -0.8% | ? | 6.9e-09
CCc1cccc(NC(=O)C2CCCN(S(=O)(=O)c3c(C)[nH]c(=O)[nH]c3=O)C2)c1 (stereo not drawn) | i | i | -1.5% | 5.3%[11.4 µM] | 3.11e-08
O=C1C2C(c3ccccc3)C=CC(c3ccccc3)C2C(=O)N1CCO (stereo not drawn) | nt | nt | 0.1% | 13.4% | nt
C(=N\c1nc2ccccc2n1Cc1ccccc1)/c1cccs1 | nt | nt | 3.5% | 16.6% | nt

Three records drawn at random from the list so far:
SMILES | Resorufin autofl | A488 autofl | AID923 | TSHR agonist | A647 autofl
COc1ccc(OCC(=O)N(C)Cc2ccccc2)cc1 | nt | nt | 0.6% | 0.2% | nt
CCc1cccc(NC(=O)C2CCCN(S(=O)(=O)c3c(C)[nH]c(=O)[nH]c3=O)C2)c1 (stereo not drawn) | i | i | -1.5% | 5.3%[11.4 µM] | 3.11e-08
COc1ccccc1N1CCN(S(=O)(=O)c2ccc3c4c(cccc24)C(=O)N3C)CC1 | i | i | 4.1% | -1.0% | 1.33e-08

(continued)
SMILES | Resorufin autofl | A488 autofl | AID923 | TSHR agonist | A647 autofl
O=C(c1ccc(CS(=O)(=O)c2c(Cl)cccc2Cl)o1)N1CCCC1 | nt | nt | -0.6% | -1.0% | nt
Cc1ccnc(NS(=O)(=O)c2ccc(NC(=O)C3CCCCC3C(=O)O)cc2)n1 (stereo not drawn) | i | i | 0.3% | -2.7% | 5.4e-09
CCOc1ccccc1C1CC(c2ccc(Cl)cc2)Nc2nc(N)nn21 (stereo not drawn) | nt | nt | 4.1% | 2.5% | nt
Cn1c(=O)cc(OCC(=O)N2CCC(N3CCCCC3)CC2)c2ccccc21 | nt | nt | -1.4% | 1.8% | nt
FC(F)(F)c1cccc(OCCOCCn2cncn2)c1 | i | i | 5.1% | 1.3% | 4.54e-08
O=S1(=O)N=C(N2CCN(Cc3ccc4c(c3)OCO4)CC2)c2ccccc21 | i | i | -1.1% | -4.6% | 4.75e-08
COc1ccccc1-c1cc2nc(C)c(CCC(=O)NCc3ccco3)c(C)n2n1 | nt | nt | 1.8% | -2.7% | nt
Cc1ccc(-c2nc(CN(C)C)cc(CN(C)C)c2O)cc1 | i | i | 1.4% | 1.2% | 1e-09
CC1CCN(S(=O)(=O)c2ccc(S(=O)(=O)N3CCN4CCCC4C3)cc2)CC1 (stereo not drawn) | i | i | -0.5% | 3.5% | 1e-09
CCOC(=O)C1=C(C)NC(=O)NC1c1cc2c(cc1Br)OCO2 (stereo not drawn) | i | i | -3.7% | 9.5% | 4.4e-09
COC(=O)Cc1nnc(NC(=O)c2ccccc2)s1 | i | i | -1.1% | -0.8% | 2.9e-09
CC[C@H](C)N(C)C(=O)c1cc2ccccc2c(-c2ccccc2Cl)n1 | i | i | -0.6% | 25.1µM* | 2.27e-08
CC(C)(C)c1nc(CN2CCOCC2)ccc1O | i | i | -1.9% | -1.5% | 2.5e-08
CC(=O)c1ccc(N2CCN(C(=O)c3ccco3)C(C)C2)c(F)c1 (stereo not drawn) | i | i | 1.6% | -4.1% | 4.5e-09
CN1CCN(Cc2nc3cccc4c3c([n+]2[O-])-c2ccccc2-4)CC1 | i | i | 5.0%[11.5 µM] | -1.6%[11.4 µM] | 1e-09
CCOC(=O)c1c(C2COc3ccccc3O2)csc1N (stereo not drawn) | i | i | -1.3% | -3.5% | 2.33e-08
COc1ccc(OC)c(N(CC(=O)Nc2ccc3c(c2)OCO3)S(=O)(=O)c2ccccc2)c1 | nt | nt | 1.1% | ? | nt
CCOC(=O)c1ccc(N=Cc2nc(-c3ccccc3)oc2OC(C)=O)cc1 | i | i | nt | nt | 1e-09
CCc1ccc2oc(=O)cc(CN3CCC(C)CC3)c2c1 | i | i | -1.4% | ? | 7.6e-09
CCOC(=O)N1CCN(C(=O)c2cnn3ccccc23)CC1 | nt | nt | -1.2% | 1.1% | nt
CO[C@@H]1COC(=O)[C@H](C)NC(=O)[C@@H](C)COC(=O)[C@H](C)NC(=O)C/C=C\[C@H]1C | nt | nt | 0.4%[11.5 µM] | -5.2%[11.4 µM] | nt
CCSc1nnc(NC(=O)c2ccc(Br)s2)s1 | i | i | 0.0% | -1.9% | 1.51e-08
Cc1occc1C(=O)NC(C)C(C)(C)C (stereo not drawn) | i | i | 0.4% | 0.1% | 3.36e-08
O=C1C2C3C=CC(C3)C2C(=O)N1c1ccc(-c2nc3ccccc3o2)cc1 (stereo not drawn) | nt | nt | -0.2% | -1.4% | nt
CCCN1Cc2cccc(C(=O)Nc3ccc(OC)c(OC)c3)c2C1=O | i | i | 1.2% | 9.1% | 2.04e-08
The results go on:
SMILES | Resorufin autofl | A488 autofl | AID923 | TSHR agonist | A647 autofl
CCCCOCCCNC(=O)N[C@@H](CCSC)C(=O)OC | i | i | -1.5% | 2.2% | 1e-09
CCOc1cc(-c2ccc(N)c(OCC)c2)ccc1N | i | ? | 3.3% | -23.7% | 1e-09
Cc1ccc(-c2noc(CCC(=O)Nc3ccc4c(c3)OCO4)n2)cc1 | i | i | -2.0% | nt | 1e-09
O=C(CN1C(=O)c2ccccc2S1(=O)=O)Nc1ccc(S(=O)(=O)N2CCCCC2)cc1 | i | i | 1.4% | 15.1% | 1.03e-08
COc1ncc2nc(-c3ccccc3)c(=O)n(C)c2n1 | i | i | 2.3% | 39.6% | 1e-09
CCCCc1nc(NCC2CCCO2)c(C#N)c2c1COC(C)(C)C2 (stereo not drawn) | i | i | nt | nt | 9.64e-08
Cn1c(CNC(=O)Nc2cccc(Cl)c2)nnc1SCc1ccccc1 | i | i | -1.6% | -10.6% | 4.9e-09
CCC(=O)Nc1cccc(NC(=O)c2cccnc2)c1 | i | i | 1.1% | -1.5% | 2.8e-09
COc1cccc(C(=O)Nc2c(C(N)=O)oc3ccccc23)c1 | nt | nt | -4.3% | ? | nt
Cc1ccc(NCc2nnc(SCC(=O)NCCc3ccccc3)n2C)cc1 | i | i | -0.3% | -2.5% | 3.7e-09
O=C(CSc1nc2c(cnn2-c2ccccc2)c(=O)[nH]1)c1ccc(Cl)cc1 | i | i | 2.9% | ? | 1.77e-08
Cc1cc(N2CCN(C(=O)c3ccco3)CC2)n2nc(C)nc2n1 | nt | nt | -2.4% | 1.8% | nt
COc1ccccc1CNc1nc(-c2cccnc2)nc2ccccc12 | i | i | -0.8% | ? | 2.85e-08
O=C(O)CCCCn1ccc(=O)[nH]c1=O | i | i | -0.3%[11.5 µM] | 8.1%[11.4 µM] | 1.65e-08
COC(=O)NC(c1ccccc1)[C@@]1(C(=O)OC)CCCC1=O (stereo partly drawn) | nt | nt | -1.2%[11.5 µM] | 10.8%[11.4 µM] | nt
O=C(Cn1nnc(-c2cccs2)n1)OC1CCCCC1 | i | i | -1.1% | 23.7% | 1e-09
C[C@H](CCC(=O)O)[C@H]1CC[C@H]2[C@@H]3CC[C@@H]4C[C@H](O)CC[C@]4(C)[C@H]3C[C@H](O)[C@]12C | nt | nt | 1.3% | -7.5% | nt
Cc1cccc(N2CC(C(=O)Nc3ccc4c(c3)OCO4)CC2=O)c1C (stereo not drawn) | i | i | 1.0% | -1.2% | 6.9e-09
Cc1nn(-c2ccccc2)c2sc(C(=O)OCc3nnc(-c4ccccc4)o3)cc12 | i | i | -0.4% | 23.0% | 3.8e-09
COc1cc(C2=NOC(C(=O)Nc3ccc(C)cc3)C2)cc(OC)c1OC (stereo not drawn) | i | i | 0.1% | 4.2% | 2.56e-08
CCS(=O)(=O)NCc1cn2ccsc2n1 | i | i | 0.2% | -5.4%[11.4 µM] | 1.27e-08
CC(C)CCNC(=O)Cc1c(C(=O)O)[nH]c2ccc(Cl)cc12 | i | i | 0.8% | -2.2% | 3.1e-09
COCCn1nnnc1C(C(C)C)N1CCC(Cc2ccccc2)CC1 (stereo not drawn) | i | i | -0.4% | ? | 6.1e-09
CC(C)=N[C@H](C(=O)O)C(C)(C)S | i | i | 1.8%[11.5 µM] | 16.9%[11.4 µM] | 1e-09
O=C(Cn1nc(-c2ccccc2)ccc1=O)N1CCOCC1 | nt | nt | 2.5% | 1.7% | nt
COc1ccccc1C1=Nn2c(nnc2C2CCCCC2)SC1 | i | i | -2.7% | nt | 4.51e-08
CCOC(=O)CN(C(=O)Cn1nnc2ccccc21)C(C(=O)NCCOC)c1ccccc1 (stereo not drawn) | i | i | -2.1% | -0.9% | 2.49e-08
O=C(O)COc1ccc(Oc2ccccc2)cc1 | i | i | -1.1% | 3.8% | 1e-09
CC(C)(CC(=O)Nc1ccccc1)C(=O)O | i | i | -3.7%[11.5 µM] | 12.2%[11.4 µM] | 1e-09

Molecules shown so far that contain bromine, in the order listed:
SMILES | Resorufin autofl | A488 autofl | AID923 | TSHR agonist | A647 autofl
CCOC(=O)C1=C(C)NC(=O)NC1c1cc2c(cc1Br)OCO2 (stereo not drawn) | i | i | -3.7% | 9.5% | 4.4e-09
CCSc1nnc(NC(=O)c2ccc(Br)s2)s1 | i | i | 0.0% | -1.9% | 1.51e-08

Only part of the results is shown; the hit share may differ from the screen's.
